# Sa growth inh: S. aureus growth inhibition at 42 and 30 °C, primary screen, LtaS inhibitor project, RN4220, two temperatures. 0.53% of 170,000 active. AID 720641, 2013. relative growth, % (no concentration beside the values). OD600, 20 h, 42 °C; hits give low values;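 active = growth at 42 °C up to 50% and 20 or more points under that at 30 °C, or under 10% at both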;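 note: 300 nL library stock went into each well; scaled to the means of positive and negative controls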
# GIV Gai3 FP: inhibitors of GIV peptide binding to Galpha-i3, primary screen, biochemical, fluorescence polarization, FITC-GIV GBA peptide, rat Galphai3; 90 min; hits give low values; scaled: aluminum fluoride 0%, vehicle 100%; percent of control (FP), % (no concentration beside the values); 0.42% of 210,000 active; AID 1224905, 2016;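 active = replicate mean at 85% of control or lower, very high polarization wells dropped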;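 note: wells of about 15 µL received 100 nL stock; the first replicate is given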
# Target sequence (P08753 whole entry, looked up): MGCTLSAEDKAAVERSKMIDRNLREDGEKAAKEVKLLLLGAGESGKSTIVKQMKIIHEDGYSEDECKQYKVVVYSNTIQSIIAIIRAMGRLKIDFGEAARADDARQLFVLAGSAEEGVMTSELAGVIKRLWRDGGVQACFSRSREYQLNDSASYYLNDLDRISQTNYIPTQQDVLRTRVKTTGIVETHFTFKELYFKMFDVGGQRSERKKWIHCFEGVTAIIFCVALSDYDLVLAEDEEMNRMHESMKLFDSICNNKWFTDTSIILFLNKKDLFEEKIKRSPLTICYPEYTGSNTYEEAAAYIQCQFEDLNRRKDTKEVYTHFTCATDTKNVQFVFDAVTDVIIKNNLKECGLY
# HCMV UL50-53 inh: inhibitors of HCMV UL50-UL53 interaction, biochemical, HTRF | HCMV UL50-UL53 nuclear egress complex (human cytomegalovirus) | normalized percent inhibition | inhibition, % (test concentration not listed) | 0.15% of 190,000 active;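 active = both replicates at 50% or more, plus weaker picks with an unusually low signal ratio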;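 note: stock transfer was 100 nL into about 20 µL; 0% = negative control wells and 100% = wells with untagged competitor protein; inactives centre near -12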
# Sa growth inh second temp: second read-out of Sa growth inh, no call of its own (marks repeat the call); relative growth, %; measured here: growth at 30 °C;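 optical density after 20 h as mean of two plates; 100% = untreated growth and lower means inhibition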
# Numbers without * were called inactive; / = no result given; & = joins results of further samples.
# A first look:
SMILES,Sa growth inh,Sa growth inh second temp,GIV Gai3 FP,HCMV UL50-53 inh
Nc1cc(=O)[nH]c2nnc(SCc3ccc(Br)cc3)n12,83,86,111,/
CCOC(=O)c1c(-c2ccccc2)csc1NC(=O)COCc1cc(-c2ccc3c(c2)OCO3)on1,/,/,102,7
COc1cccc(C2C(C(=O)Nc3ccc(Cl)cc3)=C(C)Nc3nc4ccccc4n32)c1 (stereo not drawn),99,90,99,17
CCCCS(=O)(=O)c1c(-c2ccccc2)c2cc(Cl)ccc2[nH]c1=O,99,84,/,-18
NC(=O)CNS(=O)(=O)c1ccc(Br)c(C(=O)O)c1,93,94,/,4
O=C(Nc1ccc(-c2nc3cc(Cl)ccc3o2)cc1)c1cc2ccccc2o1,105,89,104,-10
CN(C(=O)c1ccc(-c2nn(C)c(=O)c3ccccc23)cc1)c1ccccc1,88,90,102,-11

# The listing (from the top)
SMILES,Sa growth inh,Sa growth inh second temp,GIV Gai3 FP,HCMV UL50-53 inh
Nc1cc(=O)[nH]c2nnc(SCc3ccc(Br)cc3)n12,83,86,111,/
CCOC(=O)c1c(-c2ccccc2)csc1NC(=O)COCc1cc(-c2ccc3c(c2)OCO3)on1,/,/,102,7
COc1cccc(C2C(C(=O)Nc3ccc(Cl)cc3)=C(C)Nc3nc4ccccc4n32)c1 (stereo not drawn),99,90,99,17
CCCCS(=O)(=O)c1c(-c2ccccc2)c2cc(Cl)ccc2[nH]c1=O,99,84,/,-18
NC(=O)CNS(=O)(=O)c1ccc(Br)c(C(=O)O)c1,93,94,/,4
O=C(Nc1ccc(-c2nc3cc(Cl)ccc3o2)cc1)c1cc2ccccc2o1,105,89,104,-10
CN(C(=O)c1ccc(-c2nn(C)c(=O)c3ccccc23)cc1)c1ccccc1,88,90,102,-11
O=C1C2CCCN2C(=O)C2CCCN12 (stereo not drawn),92,86,103,-30
CSc1nc2sc3c(c2c(=O)n1-c1cccc(Br)c1)CC(C)(C)OC3,81,85,97,/
CCc1ccc2oc(C(=O)N(Cc3cccc(Cl)c3)Cc3ccco3)c(C)c2c1,88,79,106,-5
COc1cccc(CNC(=O)c2cc3ccc4cccnc4c3[nH]2)c1,88,102,98,/
Cc1ccc(NC(=O)CSc2nc3nccnc3c(=O)n2CCc2c[nH]c3ccccc23)cc1,116,68,107,2
CCOc1ccc(-c2cc3nc(C4CCN(C(=O)OC(C)(C)C)CC4)c(C(=O)O)cn3n2)cc1,84,81,108,3
Cc1ccc(COC(=O)c2ccc(=O)[nH]n2)cc1,95,95,/,-12
CCC(=O)NCc1nc(-c2ccccc2Cl)no1,/,/,96,-2
O=C(c1cc2ccccc2oc1=O)N1CCCCCC1,121,75,97,-7
COc1cccc(C(=O)Nc2nncs2)c1,95,86,101,/
O=C(O)CSc1nnc2n1-c1ccc(Cl)cc1NN2,56,16,47*,-265
O=C(NCc1nc(-c2ccccc2F)no1)C1CC1,87,86,99,-29
COc1ccc(-c2cn3cc(Br)ccc3n2)cc1,101,94,/,-4
O=C(NCCSCc1ccccc1)C1CCN(S(=O)(=O)Cc2ccccc2)CC1,115,87,105,2
ClC(=NC1CC1)c1ccccc1,90,94,/,-10
NC(=O)c1cn(-c2ccccc2)nc1-c1ccccc1,99,87,97,-4
Oc1c(C=NC2CCCCCC2)sc2ccccc12,/,/,101,-57
O=C(O)/C=C/C(=O)NC1CCCCC1,99,98,104,-2

# In a second layout: 3 of the compounds above.
SMILES	Sa growth inh	Sa growth inh second temp	GIV Gai3 FP	HCMV UL50-53 inh
ClC(=NC1CC1)c1ccccc1	90	94	/	-10
NC(=O)c1cn(-c2ccccc2)nc1-c1ccccc1	99	87	97	-4
Oc1c(C=NC2CCCCCC2)sc2ccccc12	/	/	101	-57

# (more compounds)
SMILES,Sa growth inh,Sa growth inh second temp,GIV Gai3 FP,HCMV UL50-53 inh
CN(C)CC(O)COc1ccc2ccccc2c1 (stereo not drawn),98,115,98,-11
Cc1ccc(C(=O)N2CC(=O)Nc3ccccc32)cc1,86,84,/,-15
Cc1ccc2c(cnn2C(=O)CCCC(=O)N2CCN(C)CC2)c1,79,85,102,-24
COC(=O)c1ccsc1NC(=O)c1ccccc1,75,67,97,-11
COC(=O)c1c(NC(=O)CN2C(=O)c3cccc4cccc2c34)sc2c1CCCC2,95,95,97,/
COc1cccc(-c2cn3ncsc3n2)c1,101,81,103,-10
COc1cccc(C(=O)Cn2nc(-c3ccco3)ccc2=O)c1,68,82,98,/
Cc1cc(NC(=O)c2cc(-c3ccc(F)cc3)no2)nn1CC(=O)NCc1ccco1,105,76,103,/
COC(=O)CSc1nnc2n(-c3ccccc3)c(=O)c3c4c(sc3n12)COC(C(C)C)C4 (stereo not drawn),95,110,103,11
CCOC(=O)COc1ccc(Cl)cc1C(=O)OC,86,49,98,-2
O=C(Cn1c2ccccc2c2cn[nH]c(=O)c21)NCCC1=CCCCC1,108,93,102,/
Cc1cc(SCC(=O)OCC(=O)N2CCCC2)c(C)cc1Br,92,97,/,-17
O=C(NCc1cccnc1)C(=O)NCC(c1cccnc1)N1CCN(c2ccccc2F)CC1 (stereo not drawn),90,87,110,-3
Cc1csc(-n2[nH]c(C)c(CC(=O)Nc3ccccc3Cl)c2=O)n1,/,/,99,-7
COC(=O)C(CCCCN1C(=O)C2C3C=CC(C3)C2C1=O)N1C(=O)C2C3C=CC(C3)C2C1=O (stereo not drawn),/,/,102,-30
COC(=O)CSc1nc2sc3c(c2c(=O)n1-c1ccccc1)CCCC3,/,/,105&103,-19
O=C(O)c1cc(N2CCN(c3cccc(Cl)c3)CC2)nc2ccc(NC(=O)C3CCC3)cc12,/,/,103,-50
COc1ccc(/C=C/c2nc3scc(-c4cccs4)c3c(=O)o2)cc1,/,/,107,-4
C/C(=N\NC(=S)NC1CCCCC1)c1ccc(S(=O)(=O)NCc2ccco2)cc1,84,87,/,26
CCN(Cc1ccccc1)c1ncnc2onc(-c3ccc(F)cc3)c12,86,72,108,-10
COc1ccc(NC(=O)c2c[nH]c(=O)n(-c3ccccc3)c2=O)cc1,83,85,101,-24
COc1ccc(-n2nnc(-c3nc(-c4ccccc4)no3)c2C)cc1Cl,/,/,105,-29
Fc1ccc(C2Nc3ccc(OC(F)(F)F)cc3C3C=CCC32)cc1 (stereo not drawn),88,90,/,-13
COc1ccc(N2CCN(C(=O)c3cc4cc5ccc(Cl)cc5nc4o3)CC2)cc1,107,94,106,-17
Cc1ccc(CNC(=O)c2c[nH]c3ccc(S(=O)(=O)Nc4ccc(C)cc4C)cc3c2=O)cc1,99,79,103,/

# (continued)
SMILES,Sa growth inh,Sa growth inh second temp,GIV Gai3 FP,HCMV UL50-53 inh
Cc1c2occ(C(C)(C)C)c2cc2c3c(c(=O)oc12)CCCC3,111,101,100,/
CN(C)CCSc1nnc(-c2ccccc2)o1,94,81,104,-12
CC(NC(=O)COc1ccc2ccccc2c1)C(=O)O (stereo not drawn),104,97,100,-16
Cc1cc(S(=O)(=O)Nc2ccc(-c3ccc(N4CCCCC4)nn3)cc2)c(C)cc1Cl,131,114,111,/
CC(C)(C)OC(=O)/C=C/c1c(Cl)nc2sccn12,97,82,/,-51
Cc1csc(=O)n1CCC(=O)OCC(=O)Nc1ccccc1,106,92,/,-13
Cn1nnnc1SCC1=C(C(=O)O)N2C(=O)C(NC(=O)C(OC=O)c3ccccc3)C2SC1 (stereo not drawn),-0.7*,32*,/,-37
Cc1c(C(=O)O)cccc1C(=O)c1ccccc1,95,109,/,2
Cc1noc2c1C(c1cccc(Br)c1)C1=C(CCCC1=O)N2 (stereo not drawn),/,/,106,0
Cc1nc2ccc(S(=O)(=O)N(CC(=O)Nc3ccc(F)cc3)Cc3ccccc3)cc2s1,100,96,103,/
O=c1[nH]c(=O)n(Cc2c(Cl)cccc2Cl)cc1F,76,76,101,-11
c1ccc(CSc2nnc3c4ccccc4n(Cc4ccccc4)c3n2)cc1,100,90,/,-13
O=S(=O)(CCSc1ccc(C(F)(F)F)cn1)c1ccccc1,95,89,98,-6
O=C(CSc1ccccn1)Nc1ccc2c(c1)OCCO2,98,81,102,-4
O=C(O)/C=C/c1cnc[nH]1,/,/,101,-29
CCOC(=O)c1[nH]c2ccc(C)cc2c1NC(=O)OC,99,100,107,-38
CCOc1ccc(NC(=O)c2oc3ccccc3c2NC(=O)Cc2ccc(OC)c(OC)c2)cc1,104,84,103,-41
COc1ccccc1NC(=O)CN1CCN(CC(=O)Nc2ccc(F)c(F)c2)CC1,104,97,103,/
COC(=O)c1sc2nc(SCC(=O)N(C)c3ccccc3)n(N)c(=O)c2c1C,90,88,116,/
CC(C)(C)C1CCc2c(sc(NC(=O)c3cc4n(n3)C(C(F)(F)F)CC(c3ccco3)N4)c2C(N)=O)C1 (stereo not drawn),/,/,90,-9
Nn1c(Nc2ccccc2)nc2sc3c(c2c1=O)CCC3,95,60,/,0
CCc1ccc(-c2cc(C)no2)cc1S(=O)(=O)Nc1ccccc1,82,67,101,-29
COc1ccc(NC(=O)Cn2cc(S(=O)(=O)c3ccccc3)c(=O)c3cc(C)ccc32)cc1Cl,104,86,105,-26
CCc1cccc(NC(=O)CN2Cc3ccccc3C2=O)c1,97,102,107,/
CC(=O)CSc1nnc2cc(C)c3cc(C)cc(C)c3n12,93,83,116,-27

# A draw from above in order of heavy-atom count, lowest first:
SMILES,Sa growth inh,Sa growth inh second temp,GIV Gai3 FP,HCMV UL50-53 inh
O=S(=O)(CCSc1ccc(C(F)(F)F)cn1)c1ccccc1,95,89,98,-6
Cc1cc(S(=O)(=O)Nc2ccc(-c3ccc(N4CCCCC4)nn3)cc2)c(C)cc1Cl,131,114,111,/
CC(C)(C)C1CCc2c(sc(NC(=O)c3cc4n(n3)C(C(F)(F)F)CC(c3ccco3)N4)c2C(N)=O)C1 (stereo not drawn),/,/,90,-9

# New compounds follow.
SMILES,Sa growth inh,Sa growth inh second temp,GIV Gai3 FP,HCMV UL50-53 inh
O=c1oc(-c2ccc(F)cc2)nc2sc3c(c12)CCCC3,110,93,/,-1
CC1=NN(c2ccc(Cl)c(C(=O)O)c2)C(=O)/C1=C\c1ccc(-c2cc([N+](=O)[O-])ccc2Cl)o1,/,/,104,-12
CC(=O)c1ccc(S(=O)(=O)Nc2cccc(-c3ccc(N4CCCCC4)nn3)c2)cc1,118,94,97,/
NC(=O)c1cc[n+](CC(=O)N2CCOCC2)cc1,87,87,101,-72
COc1cc(C2c3c(oc4ccccc4c3=O)C(=O)N2c2nncs2)cc(OC)c1OC (stereo not drawn),104,94,101,-45
COc1nc(NS(=O)(=O)c2ccc(NC(C)=O)cc2)nc(C)c1Cl,/,/,100,-23
COc1ccc(Cn2c(SC)nc3ccccc32)cc1,104,80,100,-27
CCCn1c(=O)c2ccc(Cl)cc2n2c(=O)n(CC(=O)Nc3cc(F)ccc3F)nc12,/,/,103,-28
CCN1CCN(C(=O)c2ccc3c(c2)N(Cc2ccc(Cl)cc2)C(=O)c2ccccc2S3(=O)=O)CC1,117,78,104,-12
Cn1nc(C(F)(F)F)c(-c2ccccc2)c1/N=C/c1ccc[nH]1,98,83,98,4
COc1cc(NC(=O)c2nc3ncccn3n2)cc(OC)c1OC,94,87,102,-15
COc1ccccc1NC(=O)CC1Sc2ccc(C(F)(F)F)cc2NC1=O (stereo not drawn),96,78,104,-57
O=C1CSc2ccc(C(=O)N3CCN(Cc4ccc5c(c4)OCO5)CC3)cc2N1,76,89,/,-7
COc1ccc(-c2c(C)nn3c(C)cc(C)nc23)cc1,/,/,101,-10
CC1(C)CC(=O)c2ccc(OCc3ccc(F)cc3)cc2O1,90,85,101,2
Nc1cccc(OCCOCCOc2cccc(N)c2)c1,123,107,/,-5
Cc1cccc(Cn2cc3c(=O)n(CC(=O)Nc4cccc(C)c4C)nc-3c3cc(F)ccc32)c1,88,95,99,/
C/C(N)=C(/C#N)C(=O)CSc1nnc2c(Cl)cc(Cl)cn12,87,79,/,-57
C=CCn1nnnc1SCC(=O)Nc1cccc(C(F)(F)F)c1,99,79,101,-34
Cc1ccccc1NC(=O)c1c(NC(=O)C(F)(F)F)sc2c1CCCCC2,73,52,103,-41
O=C(Cc1cccc(C(F)(F)F)c1)NC1=NCCS1,80,83,/,-2
Cc1cc(N2CCOCC2)ccc1/C=C1\NC(=O)N(Cc2ccccc2)C1=O,83,75,108,/
CCOc1ccccc1CNC(=O)C(CC)n1nc(C)c2c(C)n(-c3ccccc3)nc2c1=O (stereo not drawn),88,80,99,/

# Structural class: the entries above containing a CF3 group (8)
SMILES,Sa growth inh,Sa growth inh second temp,GIV Gai3 FP,HCMV UL50-53 inh
Fc1ccc(C2Nc3ccc(OC(F)(F)F)cc3C3C=CCC32)cc1 (stereo not drawn),88,90,/,-13
O=S(=O)(CCSc1ccc(C(F)(F)F)cn1)c1ccccc1,95,89,98,-6
CC(C)(C)C1CCc2c(sc(NC(=O)c3cc4n(n3)C(C(F)(F)F)CC(c3ccco3)N4)c2C(N)=O)C1 (stereo not drawn),/,/,90,-9
Cn1nc(C(F)(F)F)c(-c2ccccc2)c1/N=C/c1ccc[nH]1,98,83,98,4
COc1ccccc1NC(=O)CC1Sc2ccc(C(F)(F)F)cc2NC1=O (stereo not drawn),96,78,104,-57
C=CCn1nnnc1SCC(=O)Nc1cccc(C(F)(F)F)c1,99,79,101,-34
Cc1ccccc1NC(=O)c1c(NC(=O)C(F)(F)F)sc2c1CCCCC2,73,52,103,-41
O=C(Cc1cccc(C(F)(F)F)c1)NC1=NCCS1,80,83,/,-2
